Mtb growth = M. tuberculosis H37Rv growth inhibitors, H37Rv strain (AID 1626). actives 0.95% (n = 220,000). M. tuberculosis H37Rv growth inhibition; higher % means a stronger effect. one-dose inhibition, % at 10 µM; IC50 in µM for titrated hits;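 active = confirmed in a dose series; inconclusive = inhibition above 80% but not taken into the dose series; inactive = below 80% or under 30% at every dose of the series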;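 note: bacteria incubated seven days before Alamar blue readout; 0% = bacteria only wells and 100% = bacteria with antibiotic wells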
RecA intein inh = blocks M. tuberculosis RecA intein splicing | P9WHJ3 | cell-free RecA intein splicing, fluorescence | inhibition, %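 (about 9 µM by stock and volumes)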 | actives 0.75% (n = 290,000) | AID 2221; in the data active = inhibition above about 30%; inconclusive = no clear call, values can overlap the other calls;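 note: 0% = vehicle wells and 100% = reference inhibitor control wells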
Target sequence (P9WHJ3 whole entry, looked up): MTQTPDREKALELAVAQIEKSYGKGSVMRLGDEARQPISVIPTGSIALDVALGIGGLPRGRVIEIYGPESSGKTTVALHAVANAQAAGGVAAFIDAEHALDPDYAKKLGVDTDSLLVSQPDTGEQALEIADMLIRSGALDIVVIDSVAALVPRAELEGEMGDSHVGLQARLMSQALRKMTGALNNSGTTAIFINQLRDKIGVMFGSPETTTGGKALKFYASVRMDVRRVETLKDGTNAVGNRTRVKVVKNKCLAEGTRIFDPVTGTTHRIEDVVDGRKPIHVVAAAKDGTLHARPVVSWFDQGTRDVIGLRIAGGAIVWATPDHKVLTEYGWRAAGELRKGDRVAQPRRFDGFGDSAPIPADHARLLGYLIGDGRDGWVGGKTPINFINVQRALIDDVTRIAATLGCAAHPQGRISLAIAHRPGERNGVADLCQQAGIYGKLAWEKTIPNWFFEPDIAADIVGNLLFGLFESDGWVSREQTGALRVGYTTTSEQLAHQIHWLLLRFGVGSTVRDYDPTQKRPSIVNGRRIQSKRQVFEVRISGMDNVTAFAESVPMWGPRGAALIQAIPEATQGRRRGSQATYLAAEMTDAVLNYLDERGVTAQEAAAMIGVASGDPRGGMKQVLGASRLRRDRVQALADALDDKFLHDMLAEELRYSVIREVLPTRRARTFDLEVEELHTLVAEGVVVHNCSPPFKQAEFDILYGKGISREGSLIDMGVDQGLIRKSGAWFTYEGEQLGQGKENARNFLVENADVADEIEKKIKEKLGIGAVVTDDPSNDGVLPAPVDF
YopH PTP inh = YopH (Yersinia) phosphatase inhibition. fluorescence Ex485/Em525. inhibition, %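 (about 10 µM by stock and volumes)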. actives 0.16% (n = 140,000);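 active = inhibition of 50% or more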;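 note: controls were vehicle for no effect and minimum signal wells for full effect; inactives centre near -20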
Mtb betalactam = beta-lactam sensitization of Mtb H37Rv. M. tuberculosis H37Rv growth with meropenem, percent inhibition; hits of this screen are not shown here. inhibition, % at 25 µM. actives 0.27% (n = 330,000);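 active = about 74% or more and at least 40 points above the plate without the antibiotic, then above 30% in a dose series; inconclusive = first-round hits that could not be retested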;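 note: growth measured after seven days incubation then overnight dye step; 0% = bacteria only wells and 100% = bacteria with antibiotic; twin plates without the antibiotic show which effects depend on it; some results filed as inactive read as strong as hits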
Arbovirus anti = antivirals against arbovirus infection. arbovirus infection cell-based antiviral screen. inhibition, % at 10 µM. actives 0.37% (n = 200,000). AID 1251;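 active = inhibition from about 30%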;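 note: bluetongue infection of BSR cells; cell survival read as ATP light after 72 h; 0% = infected wells without compound and 100% = uninfected wells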
Arbovirus anti repeat = further read-out of Arbovirus anti, marked with its call; inhibition, %; measured here: 10K subset replicate screen; many hits read low in the repeat;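 first of two repeat runs on a subset; 0% = infected and 100% = uninfected wells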
Numbers without * were called inactive. Not all compounds are listed, so the mix of outcomes need not match the whole.

A first look:
What do the screens show for `CCCN(CCC)S(=O)(=O)c1ccc(C(=O)N2CC3CCC(CC3)C2)cc1`?
Mtb growth: -7.1%; RecA intein inh: 1.5; Mtb betalactam: -5.0

How did CCOC(=O)c1c(NC(=O)CSc2ncn[nH]2)sc(C)c1C do in these assays?
Mtb growth: -3.6%; RecA intein inh: -2.4; YopH PTP inh: -16.6; Mtb betalactam: 0.1; Arbovirus anti: 45.2*

What do the screens show for `Cc1ccc2c(c1Br)/C(=N/N1C(=O)c3ccccc3C1=O)C(=O)N2`?
RecA intein inh: 3.3; YopH PTP inh: -24.2; Mtb betalactam: 4.9; Arbovirus anti: 1.3

Results for C=CCN(C(=O)CCC(=O)Nc1cc(C)on1)C(C(=O)NC1CCCC1)c1ccc(C)cc1 (centres undefined) ?
RecA intein inh: -0.6; Mtb betalactam: 1.1

This part in full, from the first entry:
What do the screens show for `CCCN(CCC)S(=O)(=O)c1ccc(C(=O)N2CC3CCC(CC3)C2)cc1`?
Mtb growth: -7.1%; RecA intein inh: 1.5; Mtb betalactam: -5.0

How did CCOC(=O)c1c(NC(=O)CSc2ncn[nH]2)sc(C)c1C do in these assays?
Mtb growth: -3.6%; RecA intein inh: -2.4; YopH PTP inh: -16.6; Mtb betalactam: 0.1; Arbovirus anti: 45.2*

What do the screens show for `Cc1ccc2c(c1Br)/C(=N/N1C(=O)c3ccccc3C1=O)C(=O)N2`?
RecA intein inh: 3.3; YopH PTP inh: -24.2; Mtb betalactam: 4.9; Arbovirus anti: 1.3

Results for C=CCN(C(=O)CCC(=O)Nc1cc(C)on1)C(C(=O)NC1CCCC1)c1ccc(C)cc1 (centres undefined) ?
RecA intein inh: -0.6; Mtb betalactam: 1.1

How did C=CCS(=O)(=O)N1CCCC(C(=O)c2cccc(Cl)c2)C1 (centres undefined) do in these assays?
Mtb growth: -2.2%; RecA intein inh: 2.5; Mtb betalactam: 9.4; Arbovirus anti: -4.8

What do the screens show for `Cc1cc(NC(=O)CCCC(=O)NCc2ccccc2)no1`?
Mtb growth: 3.9%; RecA intein inh: -2.0; Mtb betalactam: -0.6; Arbovirus anti: 1.8

How did NS(=O)(=O)c1ccc(NC(=O)CSc2ncccn2)cc1 do in these assays?
Mtb growth: -8.6%; RecA intein inh: -1.5; Mtb betalactam: -0.6

How did Cc1ccc(OCC(=O)NCC(=O)Nc2ccc(F)cc2)c([N+](=O)[O-])n1 do in these assays?
Mtb growth: 1.5%; RecA intein inh: -1.4; YopH PTP inh: -27.2; Mtb betalactam: -2.0; Arbovirus anti: 7.1

What do the screens show for `COCCNC(=O)C(C)OC(=O)c1cc2sccc2n1C` (centres undefined)?
Mtb growth: -6.4%; RecA intein inh: -4.7; YopH PTP inh: 6.3; Mtb betalactam: 4.9; Arbovirus anti: 0.8

Results for Cc1nc2c(C(=O)NCc3ccc4c(c3)OCO4)c[nH]n2c(=O)c1Cc1ccccc1F ?
Mtb growth: -0.9%; YopH PTP inh: -34.8; Mtb betalactam: inconclusive; Arbovirus anti: -21.6

How did O=C(NCc1ccccc1Cl)C1CCCN1S(=O)(=O)c1ccc(F)cc1 (centres undefined) do in these assays?
RecA intein inh: 2.3; Mtb betalactam: -29.3

How did Cc1ccc(NC(=O)CCNCc2ccco2)cc1S(=O)(=O)N(C)C do in these assays?
Mtb growth: 3.3%; RecA intein inh: 1.0; Mtb betalactam: -2.6; Arbovirus anti: 3.4

How did COc1ccc2oc(=O)c(C(=O)N3CCN(c4ccc(F)cc4)CC3)cc2c1 do in these assays?
Mtb growth: -5.3%; RecA intein inh: -3.2; YopH PTP inh: -32.0; Mtb betalactam: 15.1; Arbovirus anti: 0.8

What do the screens show for `COc1ccc(CC(=O)N2CCN(c3ccccn3)CC2)cc1OC`?
Mtb growth: 3.1%; YopH PTP inh: -20.3; Mtb betalactam: -0.5; Arbovirus anti: -1.0

How did CC1(C)C2CCC1(CS(=O)(=O)N1CCN(c3ccc(F)cc3)CC1)C(=O)C2 (centres undefined) do in these assays?
RecA intein inh: 0.5; Mtb betalactam: 3.3

What do the screens show for `CCC(C)(C)C1CCC2(CC1)NC(=S)N(c1ccccc1)N2` (centres undefined)?
Mtb growth: 72.5%; RecA intein inh: 5.1; Mtb betalactam: 30.9

What do the screens show for `CC(Oc1ccc2ccccc2c1)C(=O)NNC(=O)Nc1ccccc1F` (centres undefined)?
RecA intein inh: 1.0; Mtb betalactam: 1.9

How did OCCNc1nc(Nc2cccc(O)c2)nc2ccccc12 do in these assays?
Mtb growth: 2.1%; RecA intein inh: 2.9; Mtb betalactam: 0.5

How did CCc1ncc(CN2CCC(C(=O)Nc3ccc(-n4nc(C)cc4C)cc3)CC2)cn1 do in these assays?
RecA intein inh: -1.1; Mtb betalactam: -8.9

Results for Cc1ccc(SC(C)C(=O)NC(N)=O)c(C)c1 (centres undefined) ?
Mtb growth: 7.6%; RecA intein inh: -1.9; Mtb betalactam: -1.0; Arbovirus anti: 18.6

What do the screens show for `O=[N+]([O-])c1ccc(C2OCCO2)cc1CS(=O)(=O)c1ccccc1`?
Mtb growth: 0.4%; RecA intein inh: 1.5; Mtb betalactam: 4.0; Arbovirus anti: -0.7

Results for O=C(Nc1ccccc1)C1CCN(c2nccs2)CC1 ?
Mtb growth: 2.3%; RecA intein inh: -0.8; YopH PTP inh: -39.4; Mtb betalactam: 66.8; Arbovirus anti: 2.3

What do the screens show for `O=C(O)CCC(=O)Nc1ccc(C(=O)OCC(=O)c2ccc(Cl)cc2)cc1`?
Mtb growth: 2.8%; RecA intein inh: -1.5; Mtb betalactam: 4.3; Arbovirus anti: -3.7

What do the screens show for `Cc1nc(SCC(=O)NNC(=O)c2cccs2)[nH]c(=O)c1C`?
Mtb growth: -4.2%; RecA intein inh: -2.1; Mtb betalactam: -5.4; Arbovirus anti: 3.2

Results for O=C(c1cccc(Cl)c1)N1CCC(N2CCC(C(=O)N3CCOCC3)CC2)CC1 ?
Mtb growth: 2.4%; Mtb betalactam: -5.9; Arbovirus anti: 3.1

What do the screens show for `O=C1CCCC2=C1C(c1cccnc1)Nc1ccccc1N2` (centres undefined)?
Mtb growth: -5.0%; RecA intein inh: 3.2; YopH PTP inh: 3.1; Mtb betalactam: 0.6; Arbovirus anti: -2.2; Arbovirus anti repeat: 6.0

Results for CNC(=S)N/N=C(\C)c1ccc(Cl)c(Cl)c1 ?
Mtb growth: 4.6%; RecA intein inh: 0.5; Mtb betalactam: 79.9; Arbovirus anti: -2.6

What do the screens show for `CN(C)c1ccc(S(=O)(=O)N2CCCCC2)cc1NC(=O)C1=NN(c2ccccc2)C(=O)CC1`?
RecA intein inh: 0.1; Mtb betalactam: 2.1

How did Cc1cccc(NC(=O)CSc2nnc(C3CC3)n2CC2CCCO2)c1C (centres undefined) do in these assays?
RecA intein inh: -0.7; Mtb betalactam: 4.0

How did CC[C@@H]1[C@H]2CCCC(=O)N3CC[C@@H](C[C@@H]1OC(=O)Nc1ccccc1)[C@@H]23 do in these assays?
RecA intein inh: -4.9; Mtb betalactam: -6.6

Compounds listed so far containing an aryl methoxy group:
How did COc1ccc2oc(=O)c(C(=O)N3CCN(c4ccc(F)cc4)CC3)cc2c1 do in these assays?
Mtb growth: -5.3%; RecA intein inh: -3.2; YopH PTP inh: -32.0; Mtb betalactam: 15.1; Arbovirus anti: 0.8

What do the screens show for `COc1ccc(CC(=O)N2CCN(c3ccccn3)CC2)cc1OC`?
Mtb growth: 3.1%; YopH PTP inh: -20.3; Mtb betalactam: -0.5; Arbovirus anti: -1.0

The list continues.
How did O=C(Nc1ccncc1)c1ccc(Cl)c(S(=O)(=O)N2CCCC2)c1 do in these assays?
RecA intein inh: 1.7; Mtb betalactam: -6.3

Results for CC(=O)c1c(C)[nH]c(C(=O)COC(=O)C2CC2)c1C ?
Mtb growth: 1.1%; RecA intein inh: 0.4; Mtb betalactam: 63.4; Arbovirus anti: 3.8

What do the screens show for `CNc1c([N+](=O)[O-])cnn1-c1ccccc1Cl`?
Mtb growth: 4.2%; RecA intein inh: -2.8; YopH PTP inh: -36.9; Mtb betalactam: 4.2; Arbovirus anti: 4.0

Results for CCCCCCCCCCn1cc(C(C)=O)c(=O)[nH]c1=O ?
Mtb growth: 4.8%; RecA intein inh: -3.4; YopH PTP inh: 12.2; Mtb betalactam: -7.0; Arbovirus anti: -18.4

What do the screens show for `COc1ccc(CN2CCC(C(=O)N(C)CCc3ccc(OC)c(OC)c3)CC2)c(OC)c1`?
Mtb growth: -17.0%; RecA intein inh: 1.8; YopH PTP inh: -28.8; Mtb betalactam: -1.2; Arbovirus anti: -1.1

How did C=CCNC(=S)Nc1ccc2nsnc2c1 do in these assays?
Mtb growth: 0.5%; RecA intein inh: -2.6; YopH PTP inh: -2.4; Mtb betalactam: -0.8; Arbovirus anti: 10.5

What do the screens show for `COc1ccc(-c2cc(-c3nnc(COC(=O)CC4CCCC4)o3)c3ccccc3n2)cc1OC`?
Mtb growth: 56.9%; YopH PTP inh: -4.6; Mtb betalactam: 39.2; Arbovirus anti: 15.7

Results for CCN(Cc1ccccc1)C(c1ccc(C)cc1)c1nnnn1C(C)(C)CC (centres undefined) ?
Mtb growth: 1.2%; RecA intein inh: 30.3*; YopH PTP inh: 9.8; Mtb betalactam: 9.3; Arbovirus anti: -17.1

How did Cc1cc(=O)oc2cc(NC(=O)CN3C(=O)NC(C)(c4ccccc4)C3=O)ccc12 (centres undefined) do in these assays?
RecA intein inh: -3.3; Mtb betalactam: -11.9

How did CS(=O)(=O)NNC(=O)c1cc2cc3ccccc3nc2s1 do in these assays?
Mtb growth: 0.5%; RecA intein inh: -2.0; Mtb betalactam: -1.8; Arbovirus anti: 5.5

Results for CC(=O)N1c2ccc(S(=O)(=O)N(C)CC(=O)N(C)Cc3ccccc3)cc2CC1C (centres undefined) ?
RecA intein inh: 3.1; Mtb betalactam: 5.7

Results for CC(C)(C)c1ccc(-c2n[nH]c(=S)n2/N=C/c2ccncc2)cc1 ?
Mtb growth: 9.1%; RecA intein inh: 1.2; YopH PTP inh: -23.9; Mtb betalactam: 4.4; Arbovirus anti: 3.1

What do the screens show for `Cc1cc(C)c(NC(=O)c2cccc(NC(=O)c3ccco3)c2)c(C)c1`?
RecA intein inh: -0.1; Mtb betalactam: -0.8

How did O=C(CSc1nnc(-c2ccc(F)cc2)o1)Nc1ccc(S(=O)(=O)N2CCCCCC2)cc1 do in these assays?
Mtb growth: 1.5%; YopH PTP inh: -31.1; Mtb betalactam: 11.6; Arbovirus anti: -5.1

How did CCc1ccc(NS(=O)(=O)c2c(C(=O)N3CCOCC3)c(C)n(C)c2C)cc1 do in these assays?
RecA intein inh: 0.0; Mtb betalactam: 1.4

How did CCOC(=O)c1nn(-c2ccccc2)cc1O do in these assays?
Mtb growth: -2.2%; RecA intein inh: -1.5; Mtb betalactam: -4.1

Results for CS(=O)(=O)N1CCN(C(=O)c2cccnc2)CC1 ?
Mtb growth: -7.3%; RecA intein inh: -6.5; YopH PTP inh: -48.0; Mtb betalactam: 3.6; Arbovirus anti: -4.7

What do the screens show for `O=C(c1cc(-c2ccccc2Cl)nc2ccccc12)N1CCC1`?
RecA intein inh: -2.8; Mtb betalactam: 0.6

How did CNc1c(NS(=O)(=O)c2ccc(F)c(Cl)c2)c(=O)oc2ccccc12 do in these assays?
RecA intein inh: 0.5; Mtb betalactam: 3.8

What do the screens show for `Cn1cc(/C=C2\SC(=O)N(c3ccc(O)cc3)C2=O)c2ccccc21`?
Mtb growth: 1.1%; RecA intein inh: 1.6; Mtb betalactam: 3.8

How did c1ccc(CNc2ncnc3nc[nH]c23)nc1 do in these assays?
Mtb growth: -6.7%; RecA intein inh: -3.2; YopH PTP inh: -49.7; Mtb betalactam: 1.0; Arbovirus anti: 1.4; Arbovirus anti repeat: 7.8

Results for Cc1cc(NS(=O)(=O)c2ccc(NC(=O)CSc3nc4ncccc4[nH]3)cc2)nc(C)n1 ?
Mtb growth: 0.3%; RecA intein inh: -2.0; Mtb betalactam: 18.2

Results for COc1cccc(C(=O)/C=C/c2ccc(N3CCCCC3)c([N+](=O)[O-])c2)c1 ?
Mtb growth: 29.4µM*; RecA intein inh: 6.5; YopH PTP inh: -11.3; Mtb betalactam: 97.8; Arbovirus anti: 13.5

Results for CC(CCC(=O)O)C1CC[C@@]2(C)C3C(=O)CC4C(C)(C)C(O)CC[C@]4(C)C3C(=O)C[C@]12C (some centres undefined) ?
Mtb growth: -3.8%; RecA intein inh: 7.0; Mtb betalactam: 2.7

What do the screens show for `CCC(=O)Nc1ccc(C(=O)OCc2ccccc2)cc1`?
Mtb growth: 9.5%; RecA intein inh: -4.7; Mtb betalactam: 9.2; Arbovirus anti: -1.7

How did CCOC(=O)c1c(-c2ccc(C)o2)csc1NC(=O)COC(=O)c1ccc(NC(N)=O)cc1 do in these assays?
Mtb growth: -1.3%; RecA intein inh: 4.4; YopH PTP inh: -9.5; Mtb betalactam: -0.9; Arbovirus anti: 0.6

Screening results deposited in PubChem BioAssay by several laboratories.
